Sa ugtP lethal: growth inhibition of ugtP-null S. aureus, primary screen, RN4220 ugtP deletion, OD600 | 16 h; some inactives read as strong as hits | AID 1259309, 2017 | growth inhibition, % (concentration not given with the values) | 330,000 compounds, 0.54% hits;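 active = z-score under -3 and OD600 up to 0.15 on both plates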;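 also: plate controls were untreated wells for no effect and antibiotic for full effect; wells of about 80 µL received 100 nL stock; the first replicate is given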
Mtb hypoxia inh: PubChem AID 1159583. fluorescence inhibition, % (test concentration not listed). M. tuberculosis hypoxia-regulated fluorescent reporter, fluorescence. 300,000 compounds, 0.1% hits;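 active = 35 to 45% if threefold the growth effect, above 45% if 1.5-fold the growth effect; inactive = the rest, general growth blockers included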;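 also: wells of about 50 µL received 100 nL stock; 0% = vehicle wells and 100% = reference inhibitor wells; whole bacteria with a GFP reporter of the hypoxia response; strong numbers were not always called active; many hits fall short of the cut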
PrP 5UTR inh: inhibition of PrP 5' UTR reporter expression. cell-based PrP 5' UTR mRNA reporter, plate reader. inhibition, % (concentration not given with the values). 340,000 compounds, 0.35% hits;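 active = every replicate at 50% or more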;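 also: 0 = median of the neutral control wells; tested in H4 reporter cells; numbers are from one replicate; inactives centre near -14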
BJeLR lethal: MLPCN primary cell-based screen for lethality selective to Ras in HRASV12 cells; BJeLR (HRASV12) viability, CellTiter-Glo ATP luminescence, 48 h; reference of the scale not given here; inhibition, % (concentration not given with the values); 300,000 compounds, 0.17% hits;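 active = replicate mean above 50%; inconclusive = above 50% but judged a plate artefact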;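 also: 50 nL library stock added to about 25 µL; numbers are from one replicate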
Sa RN4220 lethal: growth inhibition of S. aureus RN4220, primary screen, OD600; inhibition, % (concentration not given with the values); AID 1259311, 2017; 16 h; 330,000 compounds, 0.33% hits;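 active = z-score of -3 or lower and OD600 up to 0.18 on both plates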;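 also: plate controls were untreated cells for no effect and reference antibiotic for full effect; stock transfer was 100 nL into about 80 µL; one replicate is shown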
Autofluor counter: counter-screen for toxin protease inhibitors: compound fluorescence. compound autofluorescence counterscreen, microsphere flow cytometry; stronger effect = higher value. fluorescence intensity (test concentration not listed). 360,000 compounds, 3.1% hits;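 active = at least 3 SD above the mean of all compounds, about 16000 in these data; inconclusive = too few beads counted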;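 also: 100 nL of 1 mM stock went into each well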
Mtb hypoxia inh growth: further read-out of Mtb hypoxia inh, marked with its call; growth inhibition, %; measured here: M. tuberculosis growth (absorbance);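 0% = vehicle and 100% = reference antibiotic; read after six days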
An asterisk follows results filed as active; ? = inconclusive; . = no result given.

SMILES | Sa ugtP lethal | Mtb hypoxia inh | Mtb hypoxia inh growth | PrP 5UTR inh | BJeLR lethal | Sa RN4220 lethal | Autofluor counter
c1cncc(CNc2ncnc3ccc(-c4ccoc4)cc23)c1 | -4 | -1 | 4 | 27 | . | 1.1 | 4098
CCN1CCN(Cc2cc(Br)cc(OC)c2O)CC1 | 3 | -2 | 5 | -1 | 0 | 3.2 | 22198*
Cc1[nH]ccc(=O)c1OCc1ccc(Cl)cc1 | 2 | 0 | -5 | -16 | -6 | 1.0 | ?
O=C(CCc1nnc(C2CCCCC2)o1)N1CCN(c2ccccc2F)CC1 | 3 | -11 | -4 | -82 | 1 | 2.0 | 5522
Cn1c(=O)oc(=O)c2ccccc21 | -1 | 0 | 4 | -4 | . | 1.5 | 2817
COC(=O)c1cc(NC(=O)c2ccc(Cn3cc(Cl)cn3)o2)cc(C(=O)OC)c1 | -4 | . | . | -23 | -6 | 4.0 | 4753
COc1ccccc1N(C(=O)c1snc(C(N)=O)c1N)C(C(=O)NCCC(C)C)c1ccco1 (stereo not drawn) | 5 | 7 | 12 | -10 | 6 | 8.2 | 18096*
O=C1[C@H]2CC3C=CC2(O3)[C@@H]2OCCCN12 (stereo partly drawn) | . | . | . | -5 | 14 | . | 4211
COc1ccccc1-c1cc(C(=O)N/N=C/c2ccc(C)s2)c2ccccc2n1 | . | . | . | 2 | -13 | . | 4817
O=C1CNC(=S)N1Cc1ccccc1 | 10 | 19 | -4 | -16 | -3 | 3.7 | 5121
CCCCCCCN1CCC(=O)N([C@H](CO)c2ccccc2)CC1 | . | . | . | -21 | -2 | . | 4010
CCOc1ccc(S(=O)(=O)NCCC(=O)NCC(c2cccs2)N2CCOCC2)cc1 (stereo not drawn) | 2 | -2 | -4 | -16 | 0 | 0.6 | 5827
O=C1CC(c2ccc3c(c2)OCO3)c2cc3c(cc2N1)OCO3 (stereo not drawn) | 7 | . | . | -25 | 2 | 1.6 | 2493
CCCCCCn1cc(C(=O)O)c(=O)c2cc(F)c(N3CCN(C)CC3)cc21 | 2 | 14 | 1 | -11 | -4 | 10 | 3383
COc1ccc(-c2cc3c(=O)n(CC(=O)NC4CCN(Cc5ccccc5)CC4)ncn3n2)cc1 | 19 | 20 | 3 | -47 | 0 | 14 | 2501
Cc1cccc(C)c1NC(=O)C(=O)c1cn(C)c2ccccc12 | 3 | 7 | 3 | 15 | -4 | -0.3 | 3196
COc1ccc(NC(=O)c2cc([N+](=O)[O-])ccc2N2CCCCC2)cc1 | 11 | 3 | -5 | -30 | -9 | 6.0 | 3566
COc1ccc(CNC(=O)c2c[nH]c3ccccc3c2=O)cc1 | 8 | 9 | 2 | -67 | -3 | 5.7 | 3207
O=c1cc(CN2CCc3ccccc32)c2ccc(O)cc2o1 | -6 | 0 | 11 | -8 | 0 | 0.4 | 3565
COc1ccc(OCCC(=O)N2CCN(C)CC2)cc1 | -1 | 8 | -1 | -35 | -1 | -0.4 | 3643
O=c1oc2cc(OCc3nn[nH]n3)ccc2c2c1CCCC2 | 3 | 3 | 0 | -7 | -3 | 3.0 | 18827*
CCCCN(CCCC)c1nn[nH]n1 | 3 | 2 | 19 | -13 | . | 0.5 | 3974
CC1(C)N=C(c2cccc(F)c2)C(=O)N1 | 0 | 12 | -7 | . | -4 | -0.1 | 8464
CCC(CO)NC(=O)c1cc2c(s1)CCC2 (stereo not drawn) | 9 | 4 | 7 | -1 | -2 | 3.2 | 3242
Cc1cc(OCc2n[nH]c(=S)n2-c2ccccc2)ccc1Cl | 0 | 16 | 1 | -16 | -2 | 9.0 | 3413

Entries of single compounds from above. Order of values: Sa ugtP lethal, Mtb hypoxia inh, Mtb hypoxia inh growth, PrP 5UTR inh, BJeLR lethal, Sa RN4220 lethal, Autofluor counter
O=C1CC(c2ccc3c(c2)OCO3)c2cc3c(cc2N1)OCO3 (stereo not drawn) is listed with 7, ., ., -25, 2, 1.6, 2493
Cc1cc(OCc2n[nH]c(=S)n2-c2ccccc2)ccc1Cl is listed with 0, 16, 1, -16, -2, 9.0, 3413
Cn1c(=O)oc(=O)c2ccccc21 is listed with -1, 0, 4, -4, ., 1.5, 2817
CCN1CCN(Cc2cc(Br)cc(OC)c2O)CC1 is listed with 3, -2, 5, -1, 0, 3.2, 22198*

More compounds
SMILES | Sa ugtP lethal | Mtb hypoxia inh | Mtb hypoxia inh growth | PrP 5UTR inh | BJeLR lethal | Sa RN4220 lethal | Autofluor counter
Cc1c(OCC(=O)NCCN2CCOCC2)ccc2c3c(c(=O)oc12)CCC3 | 4 | 3 | -3 | -1 | -1 | 1.9 | 6203
O=C(Nc1nc2c(Br)cc(Br)cc2c(=O)s1)C1CCC1 | 10 | 6 | 0 | -6 | -7 | 5.9 | 5608
Cn1c(=O)c2[nH]c(NCC3CCCO3)nc2n(-c2ccccc2)c1=O (stereo not drawn) | 5 | -2 | 6 | -74 | -3 | -1.2 | 3246
COC(=O)C1=C(C(=O)OC)C(c2cc(Br)ccc2O)c2sc(=O)[nH]c2S1 (stereo not drawn) | 1 | 14 | 1 | -25 | . | 21 | 2349
CCOC(=O)c1sc(NC(=O)CCCn2nc([N+](=O)[O-])cc2C)c(C(=O)OCC)c1C | -6 | 5 | 2 | -14 | -6 | 18 | 7382
COc1ccc(CCNC(=O)C/C(C)=N/NC(=O)c2ccc([N+](=O)[O-])cc2Cl)cc1OC | . | . | . | 0 | 6 | . | 3929
CC(C)(C)c1ccc(S(=O)(=O)N2CCC(c3nc4ccc(Cl)cc4[nH]3)CC2)cc1 | -10 | 4 | 4 | -8 | -7 | -4.9 | 8291
CC(NC(=O)c1ccc(F)cc1)c1ccccc1 (stereo not drawn) | -3 | 56* | 34* | -7 | 1 | -16 | 2800
O=C1C=CC(=O)N1c1ccc(OC(F)F)cc1 | 4 | 1 | -1 | -13 | . | 3.8 | 2063
CCCCc1cc(=O)oc2cc(C)cc(OC(C)C(=O)NC(Cc3c[nH]c4ccc(O)cc34)C(=O)O)c12 (stereo not drawn) | -17 | . | . | -4 | 2 | 0.9 | 4172
CCCn1c(=S)[nH]c2cc(C(=O)N3CCN(c4ccccc4OC)CC3)ccc2c1=O | 8 | 8 | 8 | -14 | 7 | 3.8 | 9241
Cc1[nH]c2ccccc2c1/C=C/C(=O)c1ccccc1 | . | . | . | -49 | 11 | . | 11550
Cc1ccc(N(CC(=O)NC2CCCC2)C(=O)CNC(=O)c2cccs2)c(C)c1 | 8 | -2 | -1 | 1 | -3 | 0.2 | 5177
CC(=O)NS(=O)(=O)c1ccc(NC(=O)CCC(=O)Oc2ccc(C)cc2)cc1 | 3 | -5 | 1 | 1 | 12 | 2.4 | 4093
O=C(CC1C(=O)N(c2ccccc2)C(=O)N1Cc1ccco1)Nc1ccccc1 (stereo not drawn) | 5 | 11 | 2 | -33 | 2 | 8.2 | 3143
CC1(C)Oc2ccccc2OC1(O)c1ccc2ccccc2n1 (stereo not drawn) | 4 | 3 | 7 | -8 | -2 | 4.6 | 2332
CCn1cc(/C=C/C(=O)NCc2c(C)nn(C)c2C)cn1 | 5 | -9 | -10 | -23 | -2 | -7.3 | 9717
O=C(NC(=S)Nc1cccc2ncccc12)c1cccs1 | -15 | 7 | 18 | -43 | 5 | 4.3 | 4216
Cc1cccc(N2CCN(C(=O)C3CCC(CNS(=O)(=O)c4cccs4)CC3)CC2)c1C (stereo not drawn) | -8 | 2 | 12 | 8 | 3 | 31 | 5962
CNC(=S)N/N=C/c1ccc(C(C)C)cc1 | . | . | . | -44 | -3 | . | 3179
O=C(Cc1cccs1)Nc1nnc(C2CC2)s1 | 4 | 0 | 11 | -6 | -4 | 6.1 | 4149
CC(OC(=O)c1ccc(F)c(S(=O)(=O)N2CCOCC2)c1)C(=O)NC1CCCC1 (stereo not drawn) | 1 | -11 | -1 | -2 | . | -0.4 | ?
Cc1ccc(-n2cc(-c3ccccc3)[nH]c2=O)cc1F | 5 | . | . | -111 | 9 | -2.7 | 4156
CC12CN3CC(C)(CN(C1)C3c1ccccc1Cl)C2O (stereo not drawn) | -11 | -6 | -10 | -32 | 2 | 5.9 | 3116
Cc1onc(-c2ccccc2Cl)c1C(=O)N/N=C(\N)COc1ccc(Cl)cc1 | . | . | . | -10 | -3 | . | 9024

2 of the compounds above, in CSV form.
structure,Sa ugtP lethal,Mtb hypoxia inh,Mtb hypoxia inh growth,PrP 5UTR inh,BJeLR lethal,Sa RN4220 lethal,Autofluor counter
Cc1ccc(N(CC(=O)NC2CCCC2)C(=O)CNC(=O)c2cccs2)c(C)c1,8,-2,-1,1,-3,0.2,5177
CC(=O)NS(=O)(=O)c1ccc(NC(=O)CCC(=O)Oc2ccc(C)cc2)cc1,3,-5,1,1,12,2.4,4093

New compounds follow:
SMILES | Sa ugtP lethal | Mtb hypoxia inh | Mtb hypoxia inh growth | PrP 5UTR inh | BJeLR lethal | Sa RN4220 lethal | Autofluor counter
COc1ccc(-c2cn3cccnc3n2)cc1NC(=O)c1cccs1 | -6 | 20 | 1 | -12 | 2 | 7.4 | 1954
O=C(NCc1ccccc1CN1CCCC1)c1cccc(S(=O)(=O)N2CCCC2)c1 | 2 | -1 | 2 | -18 | . | 0.8 | 15874
CCc1ccc2oc(C(=O)NCc3ccncc3)c(C)c2c1 | -20 | -3 | 8 | -24 | -7 | 7.7 | 16440*
Cc1ccnc(Nc2nc3ccccc3s2)n1 | -13 | 11 | 1 | -36 | 7 | 5.4 | 3552
CC(C)(C)S(=O)(=O)N1Cc2cc(CO)cc(CCO)c2[C@@H]1CCO | 0 | -11 | 2 | -24 | . | 3.2 | 3737
O=c1[nH]c(=O)n(Cc2ccccc2)c2c1CCC2 | -3 | 5 | 16 | -2 | 2 | 0.6 | 9369
COc1ccc(-c2cc(C(=O)Nc3cc(C)on3)no2)cc1 | 9 | 6 | 6 | -22 | -2 | 5.2 | 3399
COc1ccc(NC(=O)Nc2cccc3c2OC(CN(C)S(=O)(=O)c2ccccc2)C(C)CN(C(C)CO)C3=O)cc1 (stereo not drawn) | 8 | 13 | 6 | . | . | 3.9 | .
CC1CCCN(C(=O)c2ccc(NS(=O)(=O)c3ccc4[nH]c(=O)[nH]c4c3)cc2)C1 (stereo not drawn) | 4 | -1 | 5 | -35 | 4 | 3.2 | .
C=CCNC(=O)/C(C#N)=C/c1c(C)nn(-c2ccccc2)c1Cl | 0 | 10 | 7 | -17 | 3 | -0.4 | 2049
c1csc(C(c2nnnn2C2CCCC2)N2CCCC3(CCCCC3)C2)c1 (stereo not drawn) | -3 | 8 | 1 | -7 | -1 | 9.7 | 4386
CCn1cc(C(=O)NCCC(=O)NCCCO)c(=O)c2cc3c(cc21)OCO3 | -1 | 9 | 1 | -8 | -16 | 1.4 | 3505
CC(OC(=O)Cc1c[nH]c2ccccc12)C(=O)Nc1ccccc1F (stereo not drawn) | -6 | -5 | -3 | 1 | 8 | 2.2 | ?
CCCNC(=O)C1CCN(c2cc(-c3ccccc3)nc3ncnn23)CC1 | 1 | -2 | 6 | -30 | -5 | 1.8 | 4353
O=[N+]([O-])c1ccccc1C(O)Cc1ccccn1 (stereo not drawn) | 1 | 7 | 2 | -11 | . | 2.2 | 4233
O=C(CSc1nc(O)cc(=O)n1-c1ccc(Cl)c(Cl)c1)Nc1ccc(Cl)cc1Cl | 2 | -3 | 10 | -25 | 3 | 6.1 | 6305
CCc1c(C(=O)NCCc2ccc(OC)c(OC)c2)[nH]c(C)c1C(C)=O | 10 | 2 | 1 | -4 | 6 | 7.9 | ?
Cc1cc([N+](=O)[O-])nn1Cn1nc([N+](=O)[O-])cc1C | -8 | -3 | 3 | -7 | 8 | -0.4 | 3444
Cc1ccc(C(=O)NCCCNC(=O)c2ccco2)cc1C | 0 | -10 | -4 | -17 | 2 | -2.8 | 6066
CCN1C(=O)CC(N2CCN(c3ccc(C(=O)c4ccccc4)cc3)CC2)C1=O (stereo not drawn) | -3 | . | . | -38 | -2 | -2.6 | 4201
CC(C)C=NNC(=O)c1ccc(Cl)cc1 | 2 | -14 | -11 | . | . | 1.1 | .
CC(C)Cc1nnc(NC(=O)c2ccc3c(=O)n4c(nc3c2)CCC4)s1 | -11 | -2 | -2 | 7 | -10 | 5.1 | .
COC(=O)c1ccc(NC(=O)c2ccccc2-c2ccccc2C(=O)O)cc1 | 1 | . | . | -31 | 0 | 3.4 | 4679
Cc1cc(C(=O)OCC(=O)NC2CCCC(C)C2C)c(C)o1 (stereo not drawn) | 4 | 8 | 1 | -5 | . | -1.3 | 5631
Cc1onc(-c2ccccc2Cl)c1C(=O)OCC(=O)Nc1cccc(S(=O)(=O)N(C)C)c1 | 0 | 11 | -4 | -16 | -10 | 3.7 | 4380

Compound activity (PubChem)
